Compound activity deposited in PubChem by National Center for Advancing Translational Sciences (NCATS).
NPR1 antag: blocks ANP-stimulated signaling of human Npr1 receptor | AID 1347048 | actives 1.6% (n = 76,000) | P16066 | Potency, µM (top dose mostly 46.3 µM), inactives show top-dose activity change, negative = inhibition, actives largely listed as inhibitors | HEK293 hNpr1 GloSensor cGMP, ANP-stimulated luminescence; active = well fitted inhibition curve with a large enough effect; inconclusive = small, poorly fitted or top-dose-only effect; inactive = no such curve, though single readings can be large or run the other way;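 also: nearly all actives have a fitted effect of over 60% in size; nearly all hits also lower the signal before the agonist is added; a reference antagonist and vehicle were the controls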
Target sequence (P16066 whole entry, looked up): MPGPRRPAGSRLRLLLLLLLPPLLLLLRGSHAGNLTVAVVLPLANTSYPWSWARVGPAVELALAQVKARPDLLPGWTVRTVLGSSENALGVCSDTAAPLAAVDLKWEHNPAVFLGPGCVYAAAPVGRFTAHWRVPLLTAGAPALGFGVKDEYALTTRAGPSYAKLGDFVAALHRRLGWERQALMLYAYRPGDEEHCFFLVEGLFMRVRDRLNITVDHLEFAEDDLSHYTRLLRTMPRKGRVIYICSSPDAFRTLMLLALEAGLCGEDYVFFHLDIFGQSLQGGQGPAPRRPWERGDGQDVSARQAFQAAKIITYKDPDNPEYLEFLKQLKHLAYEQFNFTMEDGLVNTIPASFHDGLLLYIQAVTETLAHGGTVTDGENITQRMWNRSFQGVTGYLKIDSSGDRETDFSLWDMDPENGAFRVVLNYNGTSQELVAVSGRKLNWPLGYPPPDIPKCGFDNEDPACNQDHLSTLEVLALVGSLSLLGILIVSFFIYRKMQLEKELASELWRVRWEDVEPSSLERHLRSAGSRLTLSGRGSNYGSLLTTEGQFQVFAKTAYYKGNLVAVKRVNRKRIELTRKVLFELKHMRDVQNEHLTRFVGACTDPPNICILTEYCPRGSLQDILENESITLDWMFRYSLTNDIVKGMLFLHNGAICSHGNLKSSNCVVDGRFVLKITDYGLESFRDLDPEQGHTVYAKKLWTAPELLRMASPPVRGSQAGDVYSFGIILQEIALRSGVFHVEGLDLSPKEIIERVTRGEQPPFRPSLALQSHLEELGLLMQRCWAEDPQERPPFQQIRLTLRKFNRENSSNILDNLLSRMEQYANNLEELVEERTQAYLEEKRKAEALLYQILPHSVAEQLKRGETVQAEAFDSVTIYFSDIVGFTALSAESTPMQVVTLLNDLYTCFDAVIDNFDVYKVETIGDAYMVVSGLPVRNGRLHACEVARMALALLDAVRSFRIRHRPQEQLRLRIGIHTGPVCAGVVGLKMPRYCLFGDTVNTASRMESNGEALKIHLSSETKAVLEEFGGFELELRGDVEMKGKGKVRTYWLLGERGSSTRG
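Compound pre-incubated 30 min at room temperature on GloSensor-loaded HEK293 cells stably carrying hNpr1 and the pGS-40F cGMP biosensor. Stimulation uses hNppA at 0.1 nM final; luminescence is taken at baseline and 20 min post-agonist.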
* marks the source's active call; other numbers are inactive results; ? = inconclusive; [ ] = another dose, or the depositor's remark. % is scaled to controls: 0 for no effect and ±100 for the full control effect; potency is read from the fitted curve at half-maximal effect. A portion of the library (hit frequency here may not be typical).

SMILES | NPR1 antag
CCOC(=O)N1CCC(Nc2ncncn2)CC1 | 0%
Cc1cc(C)n(CCC(=O)NCCc2noc(-c3ccccc3)n2)n1 | 0%
O=C1Cc2c(-c3ccccc3Cl)n[nH]c2CN1CC1CC1 | -6%[70.6 µM]
O=C(CCC1CCCC1)N1CCCC(Cc2nc(C3CCOCC3)no2)C1 (centres undefined) | -28%
Cc1noc(C)c1-c1cc2cc(C(C)C)oc2c(N2CCS(=O)(=O)CC2)n1 | -3%[70.6 µM]
CC(=O)N(C)CCc1noc(C2CN(C(=O)c3c(C)noc3C)C2)n1 | 2%
CN(Cc1ccc(-c2ccccc2)cc1)C(=O)c1cccc(Cl)c1 | ?
COc1cccc(CN2CCCC(O)(CN3CCC(C)CC3)C2=O)c1 (centres undefined) | -3%
CCc1[nH]c2c(CNC(=O)c3n[nH]c4c3CCC4)cc(C)cc2c1C | -17%
Cc1ccc(C(=O)N2CCc3sc(C(=O)O)cc3C2)cc1 | 4%
CCCCN(C)C(=O)c1csc(N2CCN(c3ccccc3)CC2)n1 | ?
O=C(CCC1CCN(C(=O)[C@@H]2C[C@@H]3C=C[C@H]2C3)CC1)Nc1ccc2c(c1)OCCO2 | -2%
Cn1nc(C2CCN(C(=O)c3cccnc3)CC2)c2c1CCOC2 | -3%
Cc1oc(C(C)C)cc1C(=O)N1CCC2(CC1)C(C(=O)O)CC(=O)N2C (centres undefined) | 7%
CC(=O)c1ccc(NC(=O)O[C@@H]2CO[C@H]3[C@@H]2OC[C@@H]3NS(=O)(=O)c2ccc(Cl)cc2)cc1 | 1%
O=C1CCN(S(=O)(=O)c2ccccc2)CCCN(C(=O)CN2CCOCC2)CCN1 | 5%
Cc1cnc(CC2CCN(S(=O)(=O)c3ccc(C#N)cc3)C2)n1Cc1ccccc1 (centres undefined) | -2%
CCCCNC(=O)N1CCc2c(c3cc(F)ccc3n2C)C1 | -11%
CN1C(=O)C2(CCN(C(=O)c3cc4c(s3)CCCC4)CC2)c2ccccc21 | 0%
CN1CC(=O)N(C2CCC2)Cc2c(NCCc3ccc(Cl)cc3)ncnc21 | 2%
CC(=O)N1CCN(c2cc(-c3noc([C@@H]4CCCN4Cc4ccccc4C)n3)ccn2)CC1 | -5%
O=C(c1n[nH]c2c1CCCC2)N1CCC2(CC1)NC(=O)N(c1ccccc1)N2 | 1%
O=C(CCC[C@H]1NC[C@@H]2C[C@H]1CN(Cc1ccccc1)C2)NCC1CCCCC1 | -1%
Cc1nnc(N2CC[C@H](N3CCOCC3)[C@H](CCC(=O)O)C2)c2ccccc12 | 3%
O=C(Cc1c(F)cccc1Cl)N1CCN(c2cc(-c3cccs3)[nH]n2)CC1 | -18%
COc1ccc(CN2C[C@H](O)C[C@H]2c2nc(CS(=O)(=O)c3ccc(F)cc3)no2)cc1 | -1%
CN(Cc1ccccc1)C1(C(=O)NC2CCS(=O)(=O)C2)Cc2ccccc2C1 (centres undefined) | -3%
COc1ccc(C(=O)NCc2nnc3ccc(-c4ccc(F)cc4)nn23)cc1OC | 12%
O=c1c2c(CO)c(-c3ccccc3)nn2ccn1Cc1ccccc1F | -23%
CNC(=O)CCc1ccc2c(c1)CN(C(C)=O)CCO2 | 5%
Cc1cccc(C(=O)N2CCC3(CC2)CC(OCC2CC2)CCO3)c1 (centres undefined) | -18%
COc1cc(CNC(=O)c2c(C)noc2-c2ccc(C(C)(C)C)cc2)cc(OC)c1 | -1%
O=C1CCCCC(C(=O)NCCc2c[nH]c3ccccc23)N1 (centres undefined) | -7%
COc1ccc(-c2cc(C[C@@H]3CC[C@H](O)[C@@H](CNC4CCOCC4)O3)no2)cc1 | ?
O=C(c1ccccn1)N1CCn2c(nnc2-c2cccnc2)C1 | 0%[70.6 µM]
CCS(=O)(=O)CC(=O)N1CCn2nc(C(=O)Nc3ccccc3)cc2C1 | -3%
NC(=O)[C@@H](Cc1ccccc1)NC(=O)[C@@]1(O)C[C@@H](O)[C@H](O)[C@@H](NC(=O)c2ccco2)C1 | 0%[70.6 µM]
COCC(=O)NC[C@H]1CCN(Cc2cccc(OC)c2)C[C@H]1N(C)C | 2%
CCC(=O)N1CCC2(CC1)CC(N1CCCC1)CCO2 (centres undefined) | 5%
CCn1ccc(C(=O)NCCc2ncc(C)n2C2CC2)n1 | 2%
CN1C[C@@H]2C[C@H]1C(=O)N(Cc1ccccc1)c1ccccc1O2 | -13%[70.6 µM]
COc1ccccc1CC(=O)N1CCc2c(nc[nH]c2=O)C1 | -9%
CCCS(=O)(=O)N1Cc2c(ncn2Cc2ccc(Cl)cc2)C[C@H]1C(=O)OC | 2%[70.6 µM]
O=C1CCN(C(=O)Cc2ccccc2)CCCOCCN1 | 6%
CCOc1ccccc1NC(=O)N1CCCCCCNC(=O)CC1 | 1%

Given as tab-separated lines: entries from further up.
SMILES	NPR1 antag
CCS(=O)(=O)CC(=O)N1CCn2nc(C(=O)Nc3ccccc3)cc2C1	-3%
NC(=O)[C@@H](Cc1ccccc1)NC(=O)[C@@]1(O)C[C@@H](O)[C@H](O)[C@@H](NC(=O)c2ccco2)C1	0%[70.6 µM]

(next part)
SMILES | NPR1 antag
O=C(NCc1ccccc1)NC1CCc2nn(CC3CC3)c(=O)n2CC1 (centres undefined) | 3%
O=C1NC2(CCNCC2)C(=O)N1CCCc1cccnc1 | -5%
NCCN1C(=O)CO[C@H](c2ccc(NS(=O)(=O)c3ccccc3)cc2)[C@H]1CO | 0%[70.6 µM]
CCC(=O)N1CCC(n2c(C)cnc2-c2ccccc2)CC1 | 1%
CCc1cccc(NC(=O)N2C[C@@H](F)C[C@H]2C(=O)N2CCCCC2)c1 | -4%
COc1ccc(CCC(=O)Nc2ccc3c(N4CCOCC4)ncnc3c2)cc1 | -2%
O=c1[nH]c(-c2ccccc2)nc2c1CCN(S(=O)(=O)c1ccc3c(c1)CCC3)C2 | -2%
O=C(C1CC1)N(C1CCOCC1)C1CCN(S(=O)(=O)c2ccccc2)CC1 | 0%
O=C(c1ccc(Cl)nc1)N1CCC2(CC1)Cc1ccccc1NC2=O | 15%
Cc1noc(-c2cn(C3CCN(C(=O)c4cccs4)CC3)nn2)n1 | 5%
O=C(N[C@H]1CCOC[C@H]1C1CCOCC1)c1ccc2c(c1)ncn2CCO | -1%
C=CCN(Cc1cnc(-c2cccc(C)c2)nc1)Cc1ccccn1 | -2%
CC(=O)N[C@@H]1CN(C(=O)c2ccco2)C[C@H]1CO | 1%
CCc1nc(-c2ccc(OC3CCN(C(=O)C4CC4)C3)cc2)no1 (centres undefined) | ?
CSc1cccc(NC(=O)N[C@H]2CCN(C(=O)CC(C)(C)C)[C@@H]2C(=O)N[C@H](Cc2ccccc2)C(N)=O)c1 | 4%
O=C(NCc1cccnc1Oc1ccc(F)cc1F)c1cc(C2CC2)[nH]n1 | -20%
O=C(NC[C@@H]1CCCO1)c1ncoc1C1CC1 | 2%
CC(=O)c1c(C)nn(CC(=O)N2CCCC(c3cccc(C(=O)O)c3)C2)c1C (centres undefined) | -1%
CN1C(=O)C2(CCN(C(=O)CCN3CCCCCC3=O)CC2)c2ccccc21 | 1%
CC(C)NC(=O)CCCN1C(=O)COc2ccc(C(=O)COc3ccccc3Cl)cc21 | -8%
O[C@@H]1C[C@@H](c2nnc3n2CCN(Cc2ccccn2)C3)N(Cc2ccccc2)C1 | 4%
COc1ccc(C(=O)N2CCC(N3C(=O)C4(CCCCC4)C3c3ccncc3)CC2)cn1 (centres undefined) | -2%
CC(C)CCN1CCC(N2CCN(C(=O)c3ccc(C(F)(F)F)cc3)CC2)C1=O (centres undefined) | 2%
O=C(c1ccccc1)N1CCN(c2cc(-c3ccc(Cl)cc3)[nH]n2)CC1 | ?
Cc1cc(C)cc(N2CCC(NS(=O)(=O)c3cn(C)c(C)n3)C2=O)c1 (centres undefined) | 7%
CC(C)OCCCNC(=O)C1Cn2cccc2C(=O)N1 (centres undefined) | -2%
O=C(C1CC1)N1CCC(Cc2nc(-c3ccccc3)n[nH]2)C1 (centres undefined) | -2%
COc1nccnc1NC1CCN(C(=O)COc2ccc(C)cc2)CC1 | 4%
CC1(C)C[C@H](NC(=O)c2cccc(F)c2)[C@@]2(CCC(=O)NCc3ccco3)CC[C@](C)(O)C[C@@H]12 | 3%
Cc1nn2c(c1-c1ccccc1N1CCCC1)N(C(=O)c1cccc(N(C)C)c1)CCC2 | -5%[70.6 µM]
CN(CC1CCOCC1)S(=O)(=O)c1cc(F)cc(F)c1 | 0%
C=CCNC(=O)N[C@H]1CCN2C(=O)c3ccc(Cl)cc3NC(=O)[C@@H]2C1 | 3%[70.6 µM]
CCS(=O)(=O)NCC1(COc2ccc(S(C)(=O)=O)cc2)C[C@@H](O)[C@@H](O)C1 (some centres undefined) | -4%[70.6 µM]
Cc1nc(N2CCC(C(=O)NCCc3ccccc3)CC2)cc(C(F)(F)F)n1 | -12%
O=C(Nc1ccc(Oc2ccccc2)cc1)N[C@H]1CO[C@H]2[C@@H]1OC[C@@H]2n1cc(-c2ccccc2)nn1 | ?
Cn1nccc1CN1CCC(n2cc[nH]c2=O)CC1 | -15%[70.6 µM]
CC(C)c1ccc(N2C(=O)N[C@@H]3CCN(C(=O)c4ccc(C(F)(F)F)cc4)[C@@H]3C2=O)cc1 | 5%
O=C(CN1C(=O)CNC1=O)NCc1cccnc1Oc1ccccc1F | -6%
COc1cccc(CC(=O)N2CCCN(c3cc(-c4ccc(Br)cc4)[nH]n3)CC2)c1 | 11µM*
CC1(CNc2ccccc2)COc2ccc(C(=O)NCCOc3ccccc3)cc2N1 (centres undefined) | ?
COCC1CN(S(=O)(=O)c2c(C)noc2C)CC12CCNCC2 (centres undefined) | -1%
COCc1nc(C2CC(Nc3ncnc4ccsc34)C2)cc(=O)[nH]1 (centres undefined) | 14%
Cc1cc(C)cc(-c2ccc(C(=O)NCCCn3ccnc3C(C)C)cn2)c1 | -19%
CC(C)N1CCC(N2CCN(Cc3cn[nH]c3-c3cccc(F)c3)CC2CCO)CC1 (centres undefined) | 29%
O=C(NCC(F)F)C1CN(Cc2ccccc2)C(=O)N1 (centres undefined) | 19%[70.6 µM]

A stretch taken from the entries so far, as a working copy:
SMILES | NPR1 antag
CN(CC1CCOCC1)S(=O)(=O)c1cc(F)cc(F)c1 | 0%
C=CCNC(=O)N[C@H]1CCN2C(=O)c3ccc(Cl)cc3NC(=O)[C@@H]2C1 | 3%[70.6 µM]

Among those listed so far, these have a thiophene ring, fused or not.
SMILES | NPR1 antag
Cc1ccc(C(=O)N2CCc3sc(C(=O)O)cc3C2)cc1 | 4%
CN1C(=O)C2(CCN(C(=O)c3cc4c(s3)CCCC4)CC2)c2ccccc21 | 0%
O=C(Cc1c(F)cccc1Cl)N1CCN(c2cc(-c3cccs3)[nH]n2)CC1 | -18%
Cc1noc(-c2cn(C3CCN(C(=O)c4cccs4)CC3)nn2)n1 | 5%
COCc1nc(C2CC(Nc3ncnc4ccsc34)C2)cc(=O)[nH]1 (centres undefined) | 14%

Other records follow.
SMILES | NPR1 antag
O=C(c1ccc(F)c(F)c1)N1CCC[C@H]1c1nc(-c2ccccc2)no1 | -6%
O=C(C1CCCCC1)N1CCCC(n2cc(-c3nc(-c4ccccc4)no3)nn2)C1 (centres undefined) | ?
Cc1cnc(CC2CCN(S(=O)(=O)c3ccc4c(c3)CCC4)C2)n1CC1CC1 (centres undefined) | ?
COC[C@@]12CC[C@@H](N3CCOCC3)C[C@H]1CCN(Cc1cccc3nonc13)C2 | 4%
Cn1ccnc1C(=O)N1CCC(C(=O)N2CCCCCCNC(=O)CC2)CC1 | 4%
CCn1c(CO)nnc1C1CC(NC(=O)c2cnc3sccn3c2=O)C1 (centres undefined) | 2%
CN(C)C(=O)C1CN(C(=O)Nc2ccc(F)cc2)CC12CCOCC2 (centres undefined) | -13%
c1cc2nc(C3CCCCC3)[nH]c2cn1 | 10%[70.6 µM]
Cc1nnc(-c2cc(NCc3cccs3)ccn2)n1C1CCCCC1 | 3%[70.6 µM]
O=C(CC1CCCC1)N1CCC2(CC1)CC(N(Cc1ccccc1)C1CC1)CCO2 (centres undefined) | 11%
COc1ccc(CNC(=O)[C@@H]2Cc3cn(Cc4cccnc4)c4cccc(c34)[C@H](CC(C)C)N2)cc1 | -12%
CCN1C(=O)CCN(C(=O)CCc2ccc(OC)cc2)CC12CCOCC2 | 10%
CCNC(=O)N1CCC2(CC1)CC(N(C(=O)c1ccccc1)C1CC1)CCO2 (centres undefined) | 1%
Cc1cc(-c2cnc3n[nH]c(-c4ccccc4)c3n2)ccn1 | -18%[70.6 µM]
COc1ccc(C2(C(=O)N3CCC4(CC3)NCCc3c4[nH]c4ccccc34)CC2)cc1 | -26%
COc1ccc(N2Cc3c(ncnc3N3CCOCC3)N(C)CC2=O)cc1 | -17%
COc1cccc(CCC(=O)N2CCCC(Cc3nc(C4CCOCC4)no3)C2)c1 (centres undefined) | 0%
Cc1cccc(S(=O)(=O)N2[C@@H]3CC[C@H]2CC(NC(=O)c2ccc(F)cc2)C3)c1 (some centres undefined) | 0%
COCCNC(=O)[C@@H]1C[C@@H](O)CN1C1CCN(C(=O)c2ccc(OC)nc2)CC1 | 6%
